Calb biofilm kill – mixture kills Candida albicans biofilm cells; C. albicans biofilm persisters + clotrimazole, fluorescence viability; primary screen in compound mixtures of four per well; inhibition, % at 7.6 µM; 120,000 compounds, 0.02% hits; AID 1242;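 active = inhibition above 30.3% in the primary screen of four-compound pools, then above 30% when the compound was retested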;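 note: compounds exposed to preformed 24 h biofilms for 48 h; the number belongs to the whole pool; some results filed as inactive read as strong as hits; inactives centre near 12; 0% = biofilm with clotrimazole alone and 100% = kill control; retested singly at about 60 µM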
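Incubation: 24 h biofilm formation, then 48 h compound exposure, 37 °C | Material: C. albicans biofilms | Buffer or medium: RPMI/MOPS medium, pH 7.0 | Measured by: 2-h Alamar Blue fluorescence, 535/590 nm excitation/emission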
Active calls of the source: *.

SMILES	Calb biofilm kill
CCN(CC)CCCNC(CC(=O)Nc1cccc([N+](=O)[O-])c1)C(=O)O (configuration not stated)	17
CC1(C)Oc2ccc3ccc(=O)oc3c2/C(=C/Nc2cccc(O)c2)C1=O	3
Cc1nn(-c2ccccc2)c(Cl)c1CN(C(=O)CCl)c1cccc2ccccc12	19
O=C(O)CCC(=O)NNC(=O)c1cccc(Br)c1	17
Cc1cc(C)nc(NC(N)=NC(C)c2ccccc2)n1 (configuration not stated)	14
COCCNC(=O)C(=O)N/N=C(\C)CC(=O)Nc1cccnc1	21
COc1ccc(CC(=O)OCc2nnc(-c3ccccc3)o2)cc1	3
Clc1ccccc1-c1nnc(-c2cccs2)o1	6
CCOc1cc(C)c(S(=O)(=O)NC2CC(C)(C)NC(C)(C)C2)cc1C	17
CNCC(=O)Nc1ccc(Cl)c(C(F)(F)F)c1	7
COCCN(C(=O)c1ccco1)c1nnc(-c2ccc(F)cc2)s1	10
O=C(COC(=O)c1cccc(NS(=O)(=O)c2ccc(F)c(F)c2)c1)NC(=O)NC1CCCCC1	-4
CCN(CC)c1ccc(/C=C2\NC(=O)NC2=O)cc1	19
Cc1ccc(S(=O)(=O)Nc2nc3ccccc3nc2NCC2CCCO2)cc1C (configuration not stated)	10
CN(CC(=O)Nc1ccccc1C(F)(F)F)C(=O)CSc1nnnn1C	6
COc1ccccc1CN1CCN(Cc2nc(-c3ccccc3)no2)CC1	23
O=C(N[C@@H](Cc1ccccc1)C(=O)OCc1ccccc1)c1nc[nH]c1C(=O)N1CCc2ccccc2C1	11
c1ccc(-c2nc(NCCCn3ccnc3)c3ccccc3n2)cc1	5
O=C(NNC(=O)C12CC3CC(CC(C3)C1)C2)c1cnccn1	-9
COC(=O)c1cccc(-n2c(CCC(=O)O)ccc2-c2cccs2)c1	1
Cc1cc(C(=O)COC(=O)c2ccc[nH]c2=O)c(C)n1-c1ccc(F)cc1	16
Clc1ccc(-c2cc(-c3nnc4n3CCCCC4)c3ccccc3n2)cc1	8
O=C1CNC(=S)N1CCc1ccc(O)c(O)c1	16
C#CCNC(=O)C1=C[C@H](c2coc3ccccc3c2=O)[C@@H](CCCO)[C@H](OCC)O1	19
CNc1cc(N2CCCC2)ccc1[N+](=O)[O-]	10
COc1ccc([N+](=O)[O-])cc1NC(=O)COC(C)=O	13
Cc1cccc(NC(=O)C2Cc3ccccc3CN2C(=O)OCc2ccccc2)c1C (configuration not stated)	9
COc1ccc(C(=O)/C=C/c2ccc(OC)c(COc3ccccc3F)c2)cc1	16
N#CC(=NCc1cccnc1)C1=C(O)c2ccccc2C1=O	5
COc1ccccc1C(=O)Nc1ccc(C(=O)/C=C/c2cccs2)cc1	6
Cc1cccc(C)c1N1CCN(C(=O)N2CCCCC2)CC1	17
O=C(c1ccccc1)N1CCN(S(=O)(=O)c2ccccc2)CC1	22
COc1cc(C2c3sc(=O)[nH]c3SC3C(=O)N(c4ccc(Br)cc4)C(=O)C32)ccc1O (configuration not stated)	11
COc1ccccc1C(=O)Nc1cccnc1	28
COc1ccc(NC(=O)c2ccccc2NS(=O)(=O)c2ccc(C)cc2)c([N+](=O)[O-])c1	16
CCOc1ccc(C(=O)NC(C(=O)NCC2CCCO2)C(C)C)cc1 (configuration not stated)	13
Cc1cc2oc(=O)cc(CN3CCN(Cc4ccc5c(c4)OCO5)CC3)c2cc1C	12
COC(=O)c1noc(C)c1-c1ccnn1C(=O)c1ccc(Cl)cc1	13
Cc1ccsc1C(=O)NNC(=O)C1CCCCC1C(=O)O (configuration not stated)	12
CCCn1c(=S)[nH]c2cc(Cl)ccc21	21
CC(C(=O)Nc1cccc([N+](=O)[O-])c1)N1CCN(C/C=C/c2ccccc2)CC1 (configuration not stated)	12
N#Cc1ccc(C(=O)Nc2cccc3ncccc23)c(F)c1	10
COCCn1c(-c2cc(OC)c(OC)c(OC)c2)nc2oc3cc(OC)ccc3c(=O)c2c1=O	17
Oc1ccc(-c2nc3c4c(ncn3n2)-c2ccccc2CC42CCCC2)cc1	9
CCN(CC)c1ccc(NC2=C(Cl)C(=O)c3ccccc3C2=O)cc1	15
C=CC1C(OC2OC(CO)C(O)C(O)C2O)OC=C(C(=O)OC)C1CC1CC(=O)CC(CC(=O)CCc2ccc(O)cc2)O1 (configuration not stated)	19
CC(C)C[C@H](NC(=O)c1nc[nH]c1C(=O)NC1CCN(C(=O)OC(C)(C)C)CC1)C(=O)OC(C)(C)C	19
CC(C)CC(=O)NC(=S)N1CCCCCC1	11
CCOc1ccc(-n2cc(-c3ccc(OC)c(OC)c3)[nH]c2=S)cc1	10
COC(=O)c1ccc(-c2ncc(-c3cccc4ccccc34)o2)cc1	19

The closing four entries of the section above lead into the next.
SMILES	Calb biofilm kill
CC(C)C[C@H](NC(=O)c1nc[nH]c1C(=O)NC1CCN(C(=O)OC(C)(C)C)CC1)C(=O)OC(C)(C)C	19
CC(C)CC(=O)NC(=S)N1CCCCCC1	11
CCOc1ccc(-n2cc(-c3ccc(OC)c(OC)c3)[nH]c2=S)cc1	10
COC(=O)c1ccc(-c2ncc(-c3cccc4ccccc34)o2)cc1	19
Cc1cc2ccccn2c1C(=O)c1nc(NCc2ccco2)ncc1Cl	4
COc1ccc2c(c1)CC/C(=C/c1ccncc1)C2=O	20
COC(=O)C1CCN(c2ccc([N+](=O)[O-])cc2)CC1	4
CS(=O)c1ccccc1COC(=O)Nc1ccccc1 (configuration not stated)	12
CCC1(C)Cc2ccccc2C(=O)N1 (configuration not stated)	14
C/C(=N\Nc1ccc([N+](=O)[O-])cc1[N+](=O)[O-])c1ccc(-n2nncc2C(C)(C)C)cc1	10
NC(=O)c1ccccc1Br	23
Cc1cc(C)cc(N(CCC(=O)Nc2nnc(C)s2)S(=O)(=O)c2ccc(Cl)cc2)c1	19
Nc1ccccc1SSc1ccccc1N	18
COc1ccc(S(=O)(=O)Nc2cc(C)on2)cc1OC	7
Cn1c2ccccc2c(=O)c2c(=O)n(Cc3ccccc3)c(-c3ccc(F)cc3)nc21	11
O=C(CSc1ccc(-c2ccco2)nn1)NC1CCCC1	14
CCOC(=O)COc1cc([N+](=O)[O-])cc2cccnc12	20
O=C(CCc1nnc(-c2ccsc2)o1)N1CCc2c(Cl)cccc2C1	15
Cc1ccc(C)c(Nc2c([N+](=O)[O-])c(=O)oc3ccccc23)c1	24
O=C1C=CC(=O)N1N(c1ccccc1)c1ccccc1	12
O=[N+]([O-])c1ccc(Sc2nnnn2-c2ccccc2)nc1	11
O=C(Nc1ccccc1)NC1CCCCNC1=O (configuration not stated)	15
Cc1nc2cc(C(=O)NCc3ccc4c(c3)OCO4)ccc2n1-c1ccc(Br)cc1	14
CNc1nnc(C(F)(F)F)s1	23
Nc1nc(CSc2ncn[nH]2)nc(Nc2ccc(F)cc2)n1	5
COc1cccc(/C=C/C(=O)OCC(=O)NCc2ccco2)c1	12
Cc1ccc(NC(=O)CN2CCN(CCN=CC3=C(O)CC(c4ccccc4)CC3=O)CC2)cc1 (configuration not stated)	21
O=C(Cn1c(=S)[nH]c2ccccc2c1=O)NCCc1ccccc1	15
Cc1nn(Cc2ccc(F)cc2)c(C)c1NC(=O)C1c2ccccc2Oc2ccccc21	18
COC(=O)CCC(=O)OC1(C)C(=O)C=C2C=C(C3CC3)N(CC(C)C)C=C2C1=O (configuration not stated)	21
COc1ccc2[nH]c(O)c(N=NC(=N)N)c2c1	16
Cc1ccccc1OCCn1cnc2c(N)ncnc21	-3
O=C(CSc1n[nH]c(=O)n1Cc1ccco1)N1CCOCC1	18
CCOC(=O)C1=C(C)OC(N)=C(C#N)C1c1ccccc1 (configuration not stated)	0

4 entries drawn at random from the list so far, as already listed:
SMILES	Calb biofilm kill
Cc1ccccc1OCCn1cnc2c(N)ncnc21	-3
Cc1ccc(NC(=O)CN2CCN(CCN=CC3=C(O)CC(c4ccccc4)CC3=O)CC2)cc1 (configuration not stated)	21
O=C(Cn1c(=S)[nH]c2ccccc2c1=O)NCCc1ccccc1	15
Cc1nn(Cc2ccc(F)cc2)c(C)c1NC(=O)C1c2ccccc2Oc2ccccc21	18

Additional results follow:
SMILES	Calb biofilm kill
O=C(NNC(=O)c1cccnc1)NC12CC3CC(CC(C3)C1)C2	18
Cc1ccc(-n2c(C)nn(CC3CC3)c2=O)cc1	-2
Cc1ccc2c(c1)C(=O)CC(O)(C(F)(F)F)O2 (configuration not stated)	23
COc1ccc(OCCC(=O)OCC(=O)NCc2ccccc2)cc1	10
CCC(C(=O)Nc1ccc(C(=O)N2CCCC2)cc1)c1ccccc1 (configuration not stated)	10
NC(=O)c1cc2cc(Cl)ccc2oc1=Nc1cccc(C(F)(F)F)c1	8
O=C(O)COc1ccccc1/C=N/NC(=O)CN1CCN(S(=O)(=O)c2ccc(Br)cc2)CC1	1
Cc1ccc(NC(=O)c2c(-c3ccccc3Cl)noc2C)nc1	8
O=C(CNC(=O)C12CC3CC(CC(C3)C1)C2)N/N=C\c1ccccn1	8
O=C(NCc1cccnc1)c1ccc(NC(=O)c2cccc([N+](=O)[O-])c2)cc1	19
CSC(SC)=C(C#N)C(=O)c1ccccc1	16
O=C(COc1ccc(NS(=O)(=O)c2ccc(F)cc2)cc1)N1CCOCC1	10
CC12CCC(C(=O)N(c3ccc(Cl)cc3)C1=O)C2(C)C (configuration not stated)	12
O=C(NCc1ccccc1)Nc1cccn(Cc2ccccc2Cl)c1=O	14
Cc1cccc(CSc2nc3ccncc3n2CC(=O)Nc2cc(C)cc(C)c2)c1	5
CC(=O)c1c(C)nc(Nc2nc(C)c3cc(C)ccc3n2)nc1C	14
C/C(=N\Nc1ccc([N+](=O)[O-])cc1)c1ccc(C#N)cc1	17
ClCc1nnc(-c2ccccc2)o1	14
O=C(NNC1CC(=O)N(c2ccc(Br)cc2)C1=O)c1ccco1 (configuration not stated)	9
CCOC(=O)c1cc(C(C)C)sc1NC(=O)COC(=O)CCS(=O)(=O)c1ccccc1	13
CCOc1ccc(NC(=S)NCCCN2CCN(c3ccc(OC)cc3)CC2)cc1	25
COc1ccc(C2CC(c3cccs3)=NN2S(C)(=O)=O)cc1OC (configuration not stated)	19
Cc1ccc(S(=O)(=O)N2CCC(C(=O)O)CC2)cc1	47
Cc1c(C(=O)OCC(=O)Nc2ccc3c(c2)OCO3)cccc1[N+](=O)[O-]	7
CCN(CC)c1nc(N)c([N+](=O)[O-])c(NCCO)n1	3
C=CCNC(=O)c1ccc(-c2cccc([N+](=O)[O-])c2)o1	10
CNC(=S)N(CCc1ccc(OC)c(OC)c1)Cc1cc2c(C)cc(C)cc2[nH]c1=O	9
Cc1c(NC(=O)CSc2nnnn2-c2ccc(F)cc2)c(=O)n(-c2ccccc2)n1C	5
CCOC(=O)CNC(=O)c1c(C)nn(C)c1Cl	-6
Cc1cc(C)n(CCc2nc(-c3ccc(-c4ccccc4)cc3)cs2)n1	9
COc1ccc(NC(=O)Nc2nnc(-c3ccncc3)s2)cc1	21
O=C(NNC1CC(=O)N(c2ccc(Br)cc2)C1=O)c1cccs1 (configuration not stated)	18
CN(C)S(=O)(=O)c1ccc(C(=O)NCc2ccc3[nH]c4c(c3c2)CCCC4)cc1	9
C/C(=N\NC(=O)C1CC1)c1ccc(Cl)cc1	6
Cc1cccc(C(=O)NC(=S)N2CCN(C(=S)NC(=O)c3cccc(C)c3)CC2)c1	7
O=C(NC1CCCCCC1)c1cc(-c2ccccn2)nc2ccccc12	12
COc1ccccc1NC(=S)NCC1CCCCC1	5
CCN(CC)S(=O)(=O)c1cc([N+](=O)[O-])ccc1N1CCC(C(N)=O)CC1	8
CC1=C(C(=O)OCc2ccccc2)C(c2ccsc2)NC(=O)N1C (configuration not stated)	10
COc1ccc(CNC(=S)N/N=C(/C)c2ccccc2)cc1	25
O=C(O)C1Cc2ccccc2CN1C(=O)COc1ccc(Br)cc1 (configuration not stated)	12
CN(Cc1ccccc1)C(=O)C(C(=O)c1ccc(F)cc1)n1cc(Cl)ccc1=O (configuration not stated)	17
NC(CO)(CO)COCc1ccccc1	5
CCOC(=O)C1CCN(C(=S)Nc2cc(C)ccc2C)CC1	10
O=C(CCCNS(=O)(=O)c1cccc2nsnc12)NCCN1CCN(c2ccccc2F)CC1	14
COC(=O)c1ccc(-c2nc3ccccc3[nH]2)cc1	14
O=[N+]([O-])c1cccc(CSc2ncnc3ccccc23)c1	8
COC(=O)c1n[nH]n(-c2cc(Cl)cc(Cl)c2)c1=O	16
COCCn1c(-c2ccc(-c3ccc([N+](=O)[O-])cc3Br)o2)nc2c1c(=O)[nH]c(=O)n2CC(C)C	10
O=C(NC(=S)NCc1ccccc1)c1ccccc1	7

Next part
SMILES	Calb biofilm kill
CC(NS(=O)(=O)c1ccccc1)C(c1cccs1)N1CCOCC1 (configuration not stated)	12
N#C/C(=C\Nc1ccccc1SC(F)(F)F)c1nc(-c2ccccc2)cs1	9
O=C(/C=C/c1ccc(O)cc1)OCc1occc(=O)c1O[C@@H]1OC(CO)[C@@H](O)[C@H](O)[C@@H]1O (some centres not stated)	17
COc1ccc(C(c2c(NC(=O)c3ccccc3)sc(C)c2C)N2CCN(CCO)CC2)cc1 (configuration not stated)	7
CC(C)(C)c1cc(CCC(=O)NN)cc(C(C)(C)C)c1O	10
CCN(CC)S(=O)(=O)c1ccc(N2CCCC2)c(NC(=O)C2CCCCC2)c1	13

Sorted by number of heavy atoms (lowest first): part of the list above.
SMILES	Calb biofilm kill
O=C(O)CCC(=O)NNC(=O)c1cccc(Br)c1	17
O=C1C=CC(=O)N1N(c1ccccc1)c1ccccc1	12
COC(=O)c1noc(C)c1-c1ccnn1C(=O)c1ccc(Cl)cc1	13
CC(C(=O)Nc1cccc([N+](=O)[O-])c1)N1CCN(C/C=C/c2ccccc2)CC1 (configuration not stated)	12
C#CCNC(=O)C1=C[C@H](c2coc3ccccc3c2=O)[C@@H](CCCO)[C@H](OCC)O1	19
COCCn1c(-c2cc(OC)c(OC)c(OC)c2)nc2oc3cc(OC)ccc3c(=O)c2c1=O	17

Only part of the results is shown; the hit share may differ from the screen's.
